Source: PubChem
B2AR ag: agonists of human beta-2 adrenergic receptor inducing internalization. P07550. Am2.2-beta2AR cells, FAP receptor internalization, flow cytometry; reference of the scale not given here. response, % (concentration not given with the values). 340,000 compounds, 0.43% hits. AID 504454;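 active = response above a set limit, near 3 SD of response in nonfluorescent compounds, cut at about 42% in these data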;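 note: stock transfer was 100 nL into about 11 µL; a reference agonist was the positive control; negative values mostly stem from fluorescent compounds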
Target sequence (P07550 whole entry, looked up): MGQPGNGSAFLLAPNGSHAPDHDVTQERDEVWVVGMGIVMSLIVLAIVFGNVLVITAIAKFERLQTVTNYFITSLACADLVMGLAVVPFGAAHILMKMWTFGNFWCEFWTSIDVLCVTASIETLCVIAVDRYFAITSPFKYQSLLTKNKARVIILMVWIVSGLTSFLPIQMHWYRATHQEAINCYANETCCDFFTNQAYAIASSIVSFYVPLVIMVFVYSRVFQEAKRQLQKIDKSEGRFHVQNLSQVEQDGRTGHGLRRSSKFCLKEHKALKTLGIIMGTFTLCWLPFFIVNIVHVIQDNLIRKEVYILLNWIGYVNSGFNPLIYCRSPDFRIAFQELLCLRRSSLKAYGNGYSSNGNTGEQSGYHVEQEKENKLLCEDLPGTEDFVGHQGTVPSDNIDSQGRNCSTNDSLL
UCH37 DUB inh: human UCH37 deubiquitinating enzyme inhibition; AID 588478; purified proteasome/UCH37, Ub-AMC cleavage fluorescence; Q9Y5K5; inhibition, % (no concentration beside the values); 330,000 compounds, 0.33% hits;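 active = mean of two replicates above 20%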;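 note: 0% = compound-free wells with enzyme and 100% = wells lacking proteasome; stock transfer was 100 nL into about 20 µL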
Target sequence (Q9Y5K5 whole entry, looked up): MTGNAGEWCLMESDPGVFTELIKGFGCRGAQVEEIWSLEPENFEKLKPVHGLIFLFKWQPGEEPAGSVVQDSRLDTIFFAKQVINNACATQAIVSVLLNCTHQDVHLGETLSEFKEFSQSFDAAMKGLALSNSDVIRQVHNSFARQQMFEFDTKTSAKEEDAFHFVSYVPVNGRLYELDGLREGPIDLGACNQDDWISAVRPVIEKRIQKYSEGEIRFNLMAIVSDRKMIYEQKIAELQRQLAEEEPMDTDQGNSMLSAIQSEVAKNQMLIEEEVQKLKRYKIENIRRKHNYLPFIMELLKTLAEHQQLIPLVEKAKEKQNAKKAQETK
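assay system = human UCH37 enzyme supplied as purified proteasome complex | amount = proteasome at 0.15 nM in the dispensed enzyme solution | schedule = 30 min compound-proteasome preincubation then 25 min substrate reaction, room temperature | measured by = fluorescence, ex 355 nm, em 460 nm | benchmarks = no-proteasome wells (full inhibition) and compound-free wells (no inhibition)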
ALR H2O2 inh: inhibitors of human sulfhydryl oxidase ALR | 290,000 compounds, 3.8% hits | AID 485317 | P55789 | purified ALR, DTT oxidation, H2O2 HRP-luminol luminescence | inhibition, % (no concentration beside the values);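 active = mean and each replicate at 75% or more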;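 note: stock transfer was 7.5 nL into about 7.5 µL; 0% = neutral wells and 100% = wells with inactivated enzyme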
Target sequence (P55789 whole entry, looked up): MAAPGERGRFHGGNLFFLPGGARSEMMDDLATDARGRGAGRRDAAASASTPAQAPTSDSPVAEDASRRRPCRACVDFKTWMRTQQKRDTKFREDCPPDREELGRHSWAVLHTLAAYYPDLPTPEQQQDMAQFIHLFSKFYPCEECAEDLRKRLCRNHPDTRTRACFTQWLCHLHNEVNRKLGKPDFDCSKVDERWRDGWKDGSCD
LANA-H2B inh: blocks KSHV LANA binding to histone H2A/H2B; Q9QR71; 320,000 compounds, 0.6% hits; AID 2629; inhibition, % (no concentration beside the values); cell-free LANA-H2A/H2B peptide, fluorescence polarization; in the data active = inhibition mostly above about 10%, no sharp cut-off; inactive = mostly below about 6.7%;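 note: stock transfer was 7.5 nL into about 10 µL; 0% = median of vehicle wells and 100% = median of positive control wells; one replicate is shown; the record names a cut of 25% in any replicate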
FGF22 binding: binders of recombinant human FGF22 by thermal shift; SYPRO orange fluorescence; percent of sucrose octasulfate shift, DMSO zero; Q9HCT0; calls only at 9.99 µM; AID 651658; 340,000 compounds, 1.5% hits;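 active = melting point raised past a set limit in the mean and every replicate; three in four hits are not shown here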
HNF4A DNA FP: change in binding of human HNF4 alpha to DNA. P41235. HNF4a-FITC DNA binding, fluorescence polarization, 1 h. activity change, % at 10 µM. 360,000 compounds, 0.3% hits. AID 1224865; in the data active = activity change above about 30%, passing the limit was not always enough;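 note: controls were the assay level and a saturating level of protein; the project sought stronger binding though the title names inhibitors; some compounds called inactive have numbers as strong as hits; positive values seem to mean higher polarization but the record does not say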
E coli growth: blocks Escherichia coli growth | OD600 absorbance (no concentration beside the values) | OD600, 23 h; active compounds read low | 330,000 compounds, 0.21% hits;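 active = OD600 absorbance below the run mean of sample wells minus 3.6 SD, in any replicate, cut at about 0.56 in these data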;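 note: stock transfer was 300 nL into about 60 µL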
Active calls of the source: *; i = inactive; · = not tested or not shown.

B2AR ag,UCH37 DUB inh,ALR H2O2 inh,LANA-H2B inh,FGF22 binding,HNF4A DNA FP,E coli growth,Molecule
-13,-31,2,-0.1,i,-0.8,0.63,O=C(Nc1ccc(NC(=O)c2cccs2)cc1Cl)c1ccco1
0,5.4,-35,-3.8,·,1.5,0.73,COc1cc(NC(=O)c2ccccc2Cl)c(OC)cc1NC(=O)CN1CCOCC1
-2,1.3,-7,-7.6,i,-2.8,0.69,CCOC(=O)CC1C(=O)NCCN1S(=O)(=O)c1ccc(Br)cc1 (centres undefined)
2,3.2,-15,8.3,·,4.2,0.7,CCCCn1c(C(C)O)nc2ccccc21 (centres undefined)
-5,4.7,1,-1.3,i,-1.5,0.74,COc1ccc(OC)c(-n2nnnc2SCC(=O)Nc2ccc(C(=O)N3CCCCC3)cc2)c1
-11,4.2,6,-1.2,·,-3.4,0.69,O=c1cc(NC2CCCCC2)c2ccccc2o1
1,-0.5,23,-3.6,·,2.6,0.66,CCCCCC(=O)NC(=S)NNC(=O)CC
15,2.5,-10,8.8,·,2.8,0.7,CCOC(=O)C1CCN(S(=O)(=O)c2ccc(NC(=O)OC)cc2)CC1
·,3.7,64,3.6,i,·,0.76,Cc1ccc2c(c1)NC(=O)c1cccc([N+](=O)[O-])c1CO2
-9,-16,·,·,·,2.8,0.67,CCCC(=O)NC(c1ccc(N(C)C)cc1)c1c(O)ccc2ccccc12 (centres undefined)
3,5.5,-5,19*,i,1.1,0.68,Cc1ccc(NC(=O)CSc2nc(N)cc(N)n2)cc1S(=O)(=O)N1CCOCC1
1,1.7,-1,3.7,i,-1.2,0.76,Cc1cccc(C2N(c3ccc(F)cc3)C(=O)C3CCCN32)c1 (centres undefined)
-9,3.5,7,-3.6,·,0.8,0.7,CCOC(=O)C1C(=O)Nc2nc(C)nn2C1c1ccccc1 (centres undefined)
8,2.4,-1,-16,i,1.0,0.7,CCc1cccc2sc(NC(=O)C3CC3)nc12
8,9.1,40,3.4,·,-23,0.66,O=C(C1=C(O)C(=O)N(c2nc3ccc(Cl)cc3s2)C1c1ccco1)c1ccco1 (centres undefined)
5,3.6,0,-2.7,i,-0.4,0.69,COc1ccc(C(=O)C2CCN(C(=O)Nc3ccc(C)cc3)CC2)cc1
2,1.6,-14,1.4,i,-1.1,0.69,Cn1c2c(c(=O)n(C)c1=O)C(c1cc3c(cc1Br)OCO3)CC(=O)N2 (centres undefined)
-3,3.1,0,5.0,i,0.4,0.69,CCn1c(CCC(=O)N(C)CC(=O)Nc2cccc(F)c2)nc2cc(S(=O)(=O)N(C)C)ccc21
0,-11,-17,-0.3,·,-4.0,0.73,Cc1ccc2nc(SCC(=O)N(CC(C)C)c3c(N)n(CC(C)C)c(=O)[nH]c3=O)[nH]c2c1
10,6.0,-6,-2.6,i,-0.7,0.68,COc1ccccc1C(=O)COC(=O)Cc1n[nH]c(=O)c2ccccc12
8,2.7,94*,4.0,·,1.4,0.65,CCN(C=NC1=NN(c2cccc(C(F)(F)F)c2)CC1)CC
-7,-78,-6,1.2,·,26,0.72,CCCNc1cc(C)c(C#N)c2nc3ccccc3n12
1,4.4,7,-1.3,·,0.4,0.6,CC1CC(=O)Nc2ccc([N+](=O)[O-])cc2N1C (centres undefined)
4,0.6,-17,3.3,·,-0.6,0.66,O=C(CNC(=O)c1ccco1)NCC(=O)OC(C(=O)c1ccccc1)c1ccc(Cl)cc1 (centres undefined)
-4,-17,-6,-1.0,i,-2.5,0.72,O=C(CSc1ccc2nnc(-c3cccnc3)n2n1)Nc1ccccc1C(F)(F)F
-8,0.2,-10,-2.6,·,1.2,0.72,O=C(COc1ccc2c(c1)OCO2)NC12CC3CC(CC(C3)C1)C2
1,2.4,14,-1.9,i,1.9,0.67,CC1CCCC(CC(=O)O)(CC(=O)O)C1 (centres undefined)
-2,·,·,-3.5,i,1.9,·,CN(C)/N=C1\CCS(=O)(=O)c2sccc21
5,4.3,-12,2.8,i,-1.9,0.74,CC(c1ccc(Br)cc1)N1CC23C=CC(O2)C(C(=O)O)C3C1=O (centres undefined)
0,2.3,·,-1.2,i,1.6,0.68,CCCS(=O)(=O)Nc1c(OC)ccc2c1c(C(=O)OCC)c(C)n2C
1,0.1,-4,0.9,·,0.6,0.71,CCc1ccc(OCC(=O)NC(=S)Nc2cccc(CO)c2)c(Br)c1
1,3.7,10,-3.0,·,3.4,0.73,CC(NC(=O)C(Cc1ccccc1)NC(=O)c1ccccc1)C(=O)O (centres undefined)
29,·,·,·,i,-1.2,·,C=C(C(=O)c1ccccc1)C(NC(C)(C)C)c1ccccc1 (centres undefined)
-7,·,-8,-2.0,·,4.2,·,O=C1CCC/C(=N\NC(=O)c2ccc(COc3cccc4cccnc34)cc2)C1
5,1.9,13,0.6,i,-4.0,0.65,CCc1[nH]nc2c1C(c1cccc(OC(=O)N3CCOCC3)c1)C(C#N)=C(N)O2 (centres undefined)
3,4.3,-5,-18,i,-0.3,0.7,O=C(Nc1ccccc1N1CCCCC1)C1CCN(C(=O)c2ccc(Cl)cc2)CC1
-13,2.5,27,3.3,·,-5.2,0.73,CCOC(=O)c1c(C)[nH]c(C(=O)CSc2nnc(C3CC3)n2N)c1C
0,0.5,·,-3.4,·,-1.2,0.66,CCN(C(=O)COC(=O)c1cccc(-n2cnnn2)c1)C1CCCCC1
2,3.1,-24,-0.3,·,-1.6,0.68,CN(C)S(=O)(=O)c1ccc(NC(=O)c2ccccn2)cc1
4,2.9,-11,-11,i,2.2,0.69,CCCS(=O)(=O)c1c(S(=O)(=O)CCC)c2c(N)cccn2c1C(=O)c1ccccc1
-4,2.5,-14,-7.7,·,2.2,0.79,C=C(C)c1cccc(C(C)(C)NC(=O)NCC2CCCO2)c1 (centres undefined)
-1,2.1,0,3.4,·,-2.8,0.67,CCOC(=O)CSc1nnc(-c2cccc(Br)c2)o1
-7,1.5,8,6.2,i,4.0,0.7,CCc1nnc(NC(=O)CSc2nccn2-c2cc(C)cc(C)c2)s1
2,2.2,-13,5.2,·,-0.7,0.65,COc1ccc(CCNc2oc(COc3ccccc3)nc2C#N)cc1
17,4.1,8,-11,·,2.8,0.75,Cc1ccc(-n2nc(C)cc2NC(=O)c2ccc(C)s2)cc1
15,·,-1,-4.1,·,5.2,·,COC(=O)/C=c1/s/c(=C(\C#N)C(=O)NCc2ccco2)n(-c2ccc(C)cc2)c1=O
1,-0.5,·,10,i,0.6,0.67,CCN(C[C@H]1N[C@@](CC)(C(=O)OC)[C@H]2C(=O)N(Cc3ccccc3)C(=O)[C@@H]12)C(=O)NC(C)C
-2,0.1,-3,0.1,·,-7.9,0.7,O=C1C2CCCN2C(c2ccccc2)N1c1nccs1 (centres undefined)
0,-0.6,-35,0.6,i,-1.8,0.69,Cc1cccc(Cc2nnc(CCC(=O)N(CC3CC3)CC3CCCO3)o2)c1 (centres undefined)
-7,9.1,·,-1.0,·,0.7,0.69,O=C(NNC(=O)c1cc2cc(Br)ccc2oc1=O)c1ccc(O)cc1O
-6,5.4,-5,-0.2,i,4.0,0.69,COc1ccc(S(=O)(=O)N2CCC(C(=O)NCCC3=CCCCC3)CC2)cc1OC
-4,5.1,·,·,·,-3.0,0.68,Cc1nn(Cc2ccccc2)c(Cl)c1C(=O)NCCc1ccc(Cl)cc1
-8,2.8,-8,0.9,i,2.5,0.73,Cc1ccc(/C=C2\SC(=S)N(CCCC(=O)NC3CCCC3)C2=O)cc1
0,3.2,·,·,i,-1.0,0.7,Cc1cc(NC(=O)CSCC(=O)Nc2ccccc2N2CCCCC2)no1
10,4.6,·,-7.7,i,2.1,0.69,CCCOc1ccc(Cl)cc1Nc1nc(NCCO)nc(N2CCCC2)n1
-14,1.8,25,-2.9,i,0.8,0.67,COc1cccc(N2CCN(C(=O)CCc3nnc4ccc(N5CCOCC5)nn34)CC2)c1
16,-26,-2,3.7,·,1.1,0.74,CCOC(=O)N1CCC(NC(=O)c2cc3c(-c4ccc(OC)c(OC)c4)nn(C)c3s2)CC1
0,-1.0,10,-1.2,·,-1.5,0.71,CC(Oc1cccc2c1OC(C)(C)C2)C(=O)O (centres undefined)
-8,-14,·,2.2,·,0.9,0.68,O=C1CCCc2c1[nH]c1ccc(Cl)cc21
-1,2.4,-2,-4.1,i,1.8,0.68,CC(OC(=O)c1cc2sccc2n1C)C(=O)NCc1ccco1 (centres undefined)

Full records, looked up by structure. Values in the order: B2AR ag | UCH37 DUB inh | ALR H2O2 inh | LANA-H2B inh | FGF22 binding | HNF4A DNA FP | E coli growth
CCn1c(CCC(=O)N(C)CC(=O)Nc2cccc(F)c2)nc2cc(S(=O)(=O)N(C)C)ccc21 across the screens: -3 | 3.1 | 0 | 5.0 | i | 0.4 | 0.69
Cc1ccc(-n2nc(C)cc2NC(=O)c2ccc(C)s2)cc1 across the screens: 17 | 4.1 | 8 | -11 | · | 2.8 | 0.75
CC(c1ccc(Br)cc1)N1CC23C=CC(O2)C(C(=O)O)C3C1=O (centres undefined) across the screens: 5 | 4.3 | -12 | 2.8 | i | -1.9 | 0.74
COc1cc(NC(=O)c2ccccc2Cl)c(OC)cc1NC(=O)CN1CCOCC1 across the screens: 0 | 5.4 | -35 | -3.8 | · | 1.5 | 0.73
CC(NC(=O)C(Cc1ccccc1)NC(=O)c1ccccc1)C(=O)O (centres undefined) across the screens: 1 | 3.7 | 10 | -3.0 | · | 3.4 | 0.73

Remaining list, next part
B2AR ag,UCH37 DUB inh,ALR H2O2 inh,LANA-H2B inh,FGF22 binding,HNF4A DNA FP,E coli growth,Molecule
3,0.2,2,-3.7,i,-2.7,·,C[C@H]1CN([C@@H](C)CO)C(=O)Cc2cc(NC(=O)Cc3ccccc3)ccc2O[C@H]1CN(C)S(=O)(=O)c1cccs1
12,0.4,31,0.9,·,5.9,0.69,O=C(NC1CC2CCCC(C1)N2C(=O)NC1CCCCC1)c1ccc(F)cc1 (centres undefined)
0,2.9,-30,-1.1,i,3.1,0.67,Cc1ccc(-n2cnn(-c3ccc([N+](=O)[O-])cc3[N+](=O)[O-])c2=O)cc1
-2,4.3,·,2.4,i,3.1,0.65,NS(=O)(=O)c1ccc2nc(NC(=O)C3CCCO3)sc2c1 (centres undefined)
39,0.6,-5,3.8,·,7.4,0.72,COC(=O)CSc1nc2ccc(NC(C)=O)cc2s1
0,1.1,-8,-3.0,i,3.0,0.66,Cc1ccn2cc(CNS(=O)(=O)c3ccc4ccccc4c3)nc2c1
4,6.6,51,-17,·,-5.0,0.66,CC1(C)Cc2ccccc2-c2n[nH]c(=S)n21
-3,3.7,-14,-2.6,i,-3.0,0.7,O=C(c1ncc[nH]1)c1ccccc1C(=O)N1CCOCC1
2,3.4,·,·,i,-1.7,0.66,O=C(CSC1=NS(=O)(=O)c2cc(F)ccc2N1)Nc1ccccc1F
-23,6.0,-40,-1.7,i,1.9,0.68,O=C(CSc1nc(-c2cccs2)cc(C(F)(F)F)n1)Nc1cc(OCC(F)(F)F)cc([N+](=O)[O-])c1
14,-0.7,·,-1.6,i,-1.2,0.62,Cc1cc(NC(=O)Cn2nc(C(=O)O)c3ccccc3c2=O)ccc1Br
-4,5.6,-2,2.1,·,4.2,0.7,Cc1oc(-c2ccc(Cl)cc2)nc1CN1CCCC(C(=O)NCc2cccnc2)C1 (centres undefined)
-1,3.1,5,-1.3,·,2.0,0.71,Cc1ccc(-c2nnc(SC(C)C#N)n2N)cc1 (centres undefined)
-3,0.3,2,2.1,i,1.9,0.66,O=C1CCC([N+](=O)[O-])C(c2ccc(-c3ccccc3)cc2)N1 (centres undefined)
8,-1.5,·,-2.9,·,-0.2,0.76,O=C(Cc1c(O)c2ccccc2[nH]c1=O)NCc1ccc(F)cc1
3,4.0,·,3.2,·,2.5,0.68,CCc1ccc(Oc2cc(C)nc(N)n2)cc1
38,0.0,·,·,·,0.9,0.63,COCc1c(C(=O)OCC(=O)N2c3ccccc3NC(=O)C2(C)C)oc2ccccc12
22,4.6,·,·,i,5.1,0.72,O=Cc1ccc(-c2ccc([N+](=O)[O-])cc2Cl)o1
-9,-1.8,0,-5.0,i,-5.3,0.72,CC(=O)c1ccc(N2C(=O)CC(N3CCN(S(=O)(=O)c4cc(C)ccc4C)CC3)C2=O)cc1 (centres undefined)

A portion of the library, so the mix of outcomes need not match the whole.
